VDR inhibitor: Inhibitors of the vitamin D receptor (VDR): qHTS; Vitamin D3 receptor (Homo sapiens), P11473; VDR-SRC2-3 peptide fluorescence polarization, 2 h; Potency, µM, without a hit: max response, negative = inhibition, usual class: inhibitors; 0.93% of 400,000 active; AID 504847, 2011; active = well fitted inhibition curve with a large enough effect; inconclusive = small, poorly fitted or top-dose-only effect, or another doubt; inactive = no such curve, though single readings can be large or run the other way; also: series mostly up to about 120 µM
Target sequence (P11473 whole entry, looked up): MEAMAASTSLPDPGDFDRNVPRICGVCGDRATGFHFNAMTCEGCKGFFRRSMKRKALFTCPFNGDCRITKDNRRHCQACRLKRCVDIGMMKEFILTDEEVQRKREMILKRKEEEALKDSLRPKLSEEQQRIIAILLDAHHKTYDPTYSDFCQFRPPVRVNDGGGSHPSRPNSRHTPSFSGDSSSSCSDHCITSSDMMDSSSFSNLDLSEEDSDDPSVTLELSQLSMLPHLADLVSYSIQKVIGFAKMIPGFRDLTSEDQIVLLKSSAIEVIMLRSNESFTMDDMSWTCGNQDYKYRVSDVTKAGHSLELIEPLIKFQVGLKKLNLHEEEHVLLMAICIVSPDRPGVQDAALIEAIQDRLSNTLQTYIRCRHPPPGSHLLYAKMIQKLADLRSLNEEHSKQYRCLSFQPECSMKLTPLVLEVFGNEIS
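Fluorescence polarization assay of small-molecule disruption of VDR binding to coregulator peptide SRC2-3. Compounds and controls pin-transferred, then read after 2 h incubation at ambient room temperature.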
* marks the source's active call; other numbers are inactive results; ? = inconclusive; & = joins results of further samples. % is scaled to controls: 0 for no effect and ±100 for the full control effect; potency is read from the fitted curve at half-maximal effect. Not all compounds are listed (hit frequency here may not be typical).

SMILES | VDR inhibitor
O=C(OCc1cc(=O)n2nc(-c3cccs3)sc2n1)c1ccc(F)cc1 | -10%
C=CCn1cc(C(=O)NCCOC)c(=O)c2cc(S(=O)(=O)N3CCCCCC3)ccc21 | -11%
O=C(c1ccnc(Cl)c1)N1CCCC(N2CCN(c3ccccc3F)CC2)C1 (configuration not stated) | 6%
CC1=CCC2C(=O)N(c3ccc(C(=O)Nc4ccccc4Cl)cc3)C(=O)C2C1 (configuration not stated) | -6%
COc1ccc(OC)c(-c2[nH]nc3c2C(c2ccco2)C(C#N)=C(N)O3)c1 (configuration not stated) | 0%
Cc1ccc(C(=O)NCCCNCCCNC(=O)c2ccc(C)nc2)cn1 | 1%
Cc1nn(-c2ccccc2)nc1CNC(=O)CC(C)(C)C | -28%
N/C(Cn1cncn1)=N\OC(=O)c1ccc(Cl)cc1Cl | -3%
CC(=O)Nc1cccc(C(=O)OCC(=O)Nc2c(C)nn(-c3ccccc3)c2C)c1 | 9%
CCOC(=O)c1oc2ccccc2c1CN1CCN(C)CC1 | -5%
Cc1ccc(NC(=O)c2c(NC(=O)Cc3ccccc3)sc3c2CCCC3)cc1 | 11%
COc1ccc(C(=O)NC2(C(F)(F)F)C(=O)NC(C)=C2C#N)cc1OC (configuration not stated) | 8%
O=C(NNC(=S)NCC1CCCO1)c1cccc(S(=O)(=O)N2CCOCC2)c1 (configuration not stated) | 6%
CCOC(=O)c1c(C)[nH]c(C)c1S(=O)(=O)N(C)Cc1ccco1 | 5%
COc1ccc(S(=O)(=O)Cc2ccc(C(=O)NC(C)C)o2)cc1 | ?
O=C(CN1C(=O)/C(=C/c2ccccc2F)Sc2ccccc21)N1CCN(c2ccccn2)CC1 | -4%
CCn1c(SCc2ccc(F)cc2Cl)nc(=O)c2c(C(=O)OC)cc(C3CC3)nc21 | -3%
O=S(=O)(NCc1ccc(Cl)cc1)c1ccc2[nH]c3c(c2c1)CCCC3 | 9%
Cc1nc2cc(NC(=O)Nc3cccc(F)c3)ccc2n1C | 17%
CN(CC(=O)Nc1ccccc1Br)C(=O)c1ccc(-c2ccc(Cl)cc2)o1 | -6%
COCCNC(=O)Cn1nc(-c2ccccc2F)ccc1=O | 1%
Cn1c(=O)c2c(O)c(Cc3ccccc3)c(=O)[nH]c2n(C)c1=O | -21%
COc1ccc(NC(=O)c2cc3ccccc3[nH]2)cc1 | 3%
COC(=O)c1c(C)[nH]c(C=Nc2ccc(OC)cc2)c1C | 6%
CSc1nnc(CCCCCNC(=O)OC(C)(C)C)o1 | -7%
Cc1cc(NC(=O)COc2ccccc2C)ccc1NC(=O)c1ccco1 | 16%
O=C(NCCCc1nc2ccccc2n1Cc1c(F)cccc1Cl)C1CCCCC1 | 15%
Cc1c(C(=O)O)sc(S(=O)(=O)N2CCN(C(=O)CC(C)c3ccccc3)CC2)c1C(=O)O (configuration not stated) | 12%
Cc1c(Cc2ccccc2)c(=O)oc2c(CN(C)C)c(O)c(Cl)cc12 | -4%
CS(=O)(=O)c1ccc2nc(NC(=O)CCC(=O)c3cccs3)sc2c1 | 3%
COc1ccc(NC(=O)CC2CC3CCC2C3)cn1 (configuration not stated) | -8%
COc1cccc(/C=C/C(=O)c2ccc3c(c2)OCCO3)c1OC | ?
COc1cc2[nH]c(=O)n(CCC(=O)NC3CCCC3)c(=O)c2cc1OC | -2%
COC(=O)c1ccc(CN2CCCC(CCC(=O)NCc3ccc(C)o3)C2)cc1 (configuration not stated) | -1%
COc1ccc(-c2nnnn2C)cc1S(=O)(=O)NCc1ccccc1 | 7%
CC(=O)NC1(c2ccccc2)CCN(Cc2nnnn2C(C)(C)C)CC1 | -7%
C[C@H](CO)N1C[C@H](C)[C@@H](CN(C)C(=O)NC2CCCCC2)Oc2ccc(NC(=O)c3ccncc3)cc2C1=O | 5%
Cc1noc(C)c1-c1nc(NCc2cccs2)c2ccccc2n1 | 45µM*
CCCn1c(CCNc2nc(-c3ccc(Cl)c([N+](=O)[O-])c3)cs2)nc2cc(Cl)c(Cl)cc21 | -17%
CC(/C=N/NC(=O)c1cccc([N+](=O)[O-])c1)=C\c1ccccc1 | -11%
COc1ccc(-n2c(SCC(=O)Nc3sc4c(c3C#N)CCCC4)nnc2-c2ccccc2OC)cc1 | 11%
Cc1ccc(C(=O)C(OC(=O)CCC(=O)Nc2cccc(C)c2)c2ccccc2)cc1 (configuration not stated) | -3%
CCOC(=O)c1cccc(NC(=O)CCc2c(C)nn(-c3ccc(N4CCCCC4)nn3)c2C)c1 | 1%
Cc1ccc(/C=C2\SC(=S)N(C(Cc3ccccc3)C(=O)O)C2=O)cc1 (configuration not stated) | 50µM*
Nc1nnc(SCC(=O)OCC(=O)c2ccccc2Br)s1 | -10%

3 entries out of the list above, sorted by their value in VDR inhibitor, high to low:
SMILES | VDR inhibitor
COc1ccc(-c2nnnn2C)cc1S(=O)(=O)NCc1ccccc1 | 7%
CCOC(=O)c1cccc(NC(=O)CCc2c(C)nn(-c3ccc(N4CCCCC4)nn3)c2C)c1 | 1%
CC(/C=N/NC(=O)c1cccc([N+](=O)[O-])c1)=C\c1ccccc1 | -11%

Part of the list above, with the structure last.
VDR inhibitor,molecule
-11%,CC(/C=N/NC(=O)c1cccc([N+](=O)[O-])c1)=C\c1ccccc1
11%,COc1ccc(-n2c(SCC(=O)Nc3sc4c(c3C#N)CCCC4)nnc2-c2ccccc2OC)cc1
-3%,Cc1ccc(C(=O)C(OC(=O)CCC(=O)Nc2cccc(C)c2)c2ccccc2)cc1 (configuration not stated)

Additional compounds follow.
SMILES | VDR inhibitor
CCS(=O)(=O)N1CCN(S(=O)(=O)c2ccc3c(c2)OCCO3)CC1 | -9%
Cc1ccc(NC(=O)CSc2nccn2-c2ccccc2)cc1 | 2%
COc1cc(NC(=O)c2cccc(COCC(F)(F)C(F)F)c2)cc(OC)c1OC | 17%
CN1C[C@@H]2[C@@H]3C(=O)N(C)C(=O)[C@@H]3[C@](C)(C1=O)N2C(=O)c1ccc(C(F)(F)F)cc1 | 6%
O=C(NC1CC1)c1ccc(NS(=O)(=O)c2ccc(F)cc2)cc1 | 5%
Cc1cc(NC(=O)CCC(=O)N(c2ccccc2F)C(C(=O)NC2CCCC2)c2ccccc2)no1 (configuration not stated) | 4%
O=C(c1ccccc1NS(=O)(=O)c1ccc([N+](=O)[O-])cc1[N+](=O)[O-])N1O[C@@H]2C=C[C@H]1C2 | 45µM*
CN1CCN(C(CNC(=O)C(=O)Nc2ccc(F)cc2F)c2ccc3c(c2)OCO3)CC1 (configuration not stated) | 0%
Cc1ccnc2nc(C(=O)Nc3ccc4c(c3)OCO4)nn12 | -12%
CC(=O)Oc1cccc(O)c1 | -2%
O=C(Nc1ccc(F)cc1Cl)C1CCN(C(=O)Nc2ccccc2)CC1 | 10%
CCCCCn1c(=O)[nH]c2cc(C(=O)NCc3ccco3)ccc2c1=O | 1%
COc1cc(CNCc2ccccc2Cl)ccc1OCC(=O)NC1CCCCC1 | -15%
Cc1onc(-c2c(Cl)cccc2Cl)c1C(=O)N=C(N)N1CCOCC1 | 10%
COC(=O)C(NC(=O)C(C)NC(=O)OCc1ccccc1)C(C)C (configuration not stated) | -18%
Cc1onc(-c2ccccc2)c1C(=O)Nc1ccc(S(=O)(=O)Nc2nccs2)cc1 | 14%
CCOC(=O)N1CCN(S(=O)(=O)c2ccc(OCC(=O)OC)cc2)CC1 | 2%
Cn1c(=O)c2c(nc(CN3CCN(c4ccc(F)cc4)CC3)n2Cc2ccccc2F)n(C)c1=O | -3%
CN(C(=O)CSc1nc(N)cc(N)n1)C1CCS(=O)(=O)C1 (configuration not stated) | 14%
NC(=O)C1=C[C@@H](c2ccc(Br)cc2)C[C@@H](OCCCCO)O1 | -30%
Cc1nnc(SCC(=O)N(C)c2c(N)n(Cc3ccccc3)c(=O)[nH]c2=O)n1Cc1ccccc1 | -20%
Cc1ccc(NC(=O)N2CCCC2C(=O)NCC2CCCCC2)cc1 (configuration not stated) | -9%
Nc1ccc(SC(F)(F)F)cc1C(=O)c1ccccc1 | -5%
CCc1ccc(S(=O)(=O)Nc2cccc(-c3ccc(N4CCOCC4)nn3)c2)cc1 | 13%
N#CCC(=O)N/N=C/c1cccc(Oc2ccccc2)c1 | -5%
O=C(O)CCC(=O)N1CCN(c2ncccc2C(F)(F)F)CC1 | 8%
CCN1CCN(c2cc(C)c3cc(NC(=O)/C=C/c4ccc(C)cc4)ccc3n2)CC1 | 4%
COc1ccccc1NC(=O)Nc1nnc(C(C)C)s1 | 15%
CCSc1ncnc2c1sc1nc3c(cc12)COC(C)(C)C3 | -4%
Cc1nnc(SCc2ccccc2Cl)c2cc3sccc3n12 | 10%
COc1cc(OC)cc(C(=O)Nc2ccc3oc(-c4ccc(Cl)cc4)nc3c2)c1 | -15%
COCCOc1cc(NC(=O)c2sccc2Oc2ccc([N+](=O)[O-])cc2F)c(Cl)cc1Cl | 12%
COc1ccc(C(=O)ON=C2CCN(c3ccc([N+](=O)[O-])cc3)CC2)cc1 | -12%
CCOC(=O)C1(Cc2ccc(OC)cc2)CCN(C(=O)CCn2ccc(C)n2)CC1 | 1%
CN(CC(=O)Nc1ccc(Cl)c(C(F)(F)F)c1)C(=O)COC(=O)C1CC2CCCC(C1)C2=O (configuration not stated) | 6%
CCOC(=O)C1CCCN(C(=O)C2c3ccccc3Oc3ccccc32)C1 (configuration not stated) | -10%
O=C1CNC(=O)N1 | -10%
Cc1ccc(S(=O)(=O)N2CCN(C(=O)CN3CCOCC3)C2c2ccccc2)cc1 (configuration not stated) | 17%
C=CCCC(=O)N1C[C@H]2CON(C)[C@H]2C[C@H]1c1cccc(Nc2ccccc2)c1 | 2%
O=C(N/N=C/C1CC=CCC1)c1cc(-c2cccnc2)nc2ccccc12 (configuration not stated) | 2%
COc1ccc(-c2cc(=O)oc3c(C)c(OCc4nn[nH]n4)ccc23)cc1 | -2%
Cc1nnc(SCC(=O)Nc2ccccc2)n1CCc1ccccc1 | 0%
Cn1c(SCC(=O)Nc2ccccc2F)nnc1C1CCCCC1 | -10%
O=C(Nc1ccc(N2CCCC2)cc1)C(c1ccccc1)c1ccccc1 | 2%
COc1ccc(C2CC(=O)NC(=O)C2)cc1 | -1%
Cc1nc(OCC(C)C)c2sc3nc4c(cc3c2n1)COC(C)(C)C4 | 16%
CCn1c(C)c(C(C)=O)c(N2CCN(c3cccc(Cl)c3)CC2)nc1=S | 1%
Fc1ccc(-c2nnn(Cc3nc4ccccc4s3)n2)cc1 | -17%
COC(=O)C1=COC(C)C2CN3CCc4c([nH]c5cc(OC)c(OC)cc45)C3CC12 (configuration not stated) | -1%
COc1ccc(-n2c(SCC(=O)Nc3cc(C)on3)nc3c([nH]c4ccccc43)c2=O)cc1 | -4%
COc1ccc(OC)c(S(=O)(=O)N2CCC(C(=O)Nc3cccc(C(F)(F)F)c3)CC2)c1 | 3%
c1ccc(-c2cnnc3ccccc23)cc1 | -19%
O=C(NCCCn1ccnc1)c1ccc(Cl)c(S(=O)(=O)N2CCOCC2)c1 | 8%
Cc1ccc(CN2CCC(c3nc4ccc(Cl)cc4[nH]3)CC2)cc1 | 1%
CN(C)S(=O)(=O)c1ccc2c(c1)C(=NNC(N)=O)c1cc(S(=O)(=O)N(C)C)ccc1-2 | 1%
COCc1cc(CN2CCCC(C(=O)Nc3ccc(-c4ccco4)cc3)C2)ccc1OC (configuration not stated) | -14%
O=C(O)CC1SC(=Nc2ccccc2)N(c2ccccc2)C1=O (configuration not stated) | 27%
CCSc1nnc(-c2ccccc2N)c(=O)[nH]1 | -5%
Cc1cc(F)ccc1S(=O)(=O)Nc1c(C)n(C)n(-c2ccccc2)c1=O | 3%
O=C(c1cccc(S(=O)(=O)N2CCCC2)c1)N1CCN(c2ccccc2)CC1 | 4%

(continued)
SMILES | VDR inhibitor
COc1ccccc1CNC(=O)[C@H](CCSC)NC(=O)[C@@H]1Cc2ccccc2CN1 | -8%
CCc1nn(CC(=O)NCCCc2ccccc2)c(=O)c2cc3ccccc3n12 | 13%
CCOC(=O)Nc1ccc2c(c1)N(C(=O)OCCN(C)C)c1ccccc1CC2 | -9%&-4%
COc1ccccc1CNC(=O)C1CCCN(S(=O)(=O)c2cccc3cccnc23)C1 (configuration not stated) | -7%
CN(C(=O)COC(=O)c1ccccc1OCc1ccc(F)cc1)C1CCS(=O)(=O)C1 (configuration not stated) | -5%
COc1cccc(C(=O)NCC2(c3ccccc3)CCCC2)c1OC | 8%
Cc1cc(SC(C)C(=O)O)nc2ccccc12 (configuration not stated) | -8%
Cc1cc(F)ccc1NC(=O)c1cc(S(=O)(=O)N2CCc3ccccc32)cn1C | ?
CC(C)c1nnc(NC(=O)c2cc3ccccc3o2)s1 | -9%
CC(=O)Oc1ccccc1C(=O)OCCN=C1NS(=O)(=O)c2ccccc21 | -3%
CCOc1ccc(N(CC(=O)OC)S(=O)(=O)c2ccc3c(c2)n(C)c(=O)c(=O)n3C)cc1 | 6%&10%
S=c1[nH]nc(Cc2ccc(Cl)cc2)o1 | -15%
O=C(Nc1ccc(Cl)c(-c2nc3ccccc3[nH]2)c1)c1cccnc1 | 20%
CN1C(c2ccc(F)cc2)=CS/C1=C(/C#N)c1nnc(N2CCOCC2)n1-c1ccccc1 | -124%
N/C(Cc1cccc2ccccc12)=N\OC(=O)c1ccc2c(c1)OCO2 | ?
COc1ccc(CSCC(=O)Nc2ccccc2SC)cc1 | -12%
O=C(Cn1c(=O)n(-c2ccccc2)c(=O)n1CC(=O)N1CCCCC1)N1CCCCC1 | -2%
COc1ccccc1NC(=O)CSc1nc(C)c2c(c1C#N)CCCC2 | 9%
